Six1-Eya2 blk: qHTS Assay for Inhibitors of the Six1/Eya2 Interaction; Homeobox protein SIX1 (Homo sapiens) + Protein phosphatase EYA2 (Homo sapiens), …; AlphaScreen GST-Six1/His-Eya2 binding, biochemical; hits give low values; control for the full effect not named in the record; activity change, % (concentration not given with the values); 360,000 compounds, 0.56% hits; AID 651725, 2012; in the data active = activity change below about -65%; inconclusive = about -30% to -65%; inactive = above about -30%; note: % is set by controls: 0 for no effect and ±100 for the full control effect
Target sequence (O00167 whole entry, looked up): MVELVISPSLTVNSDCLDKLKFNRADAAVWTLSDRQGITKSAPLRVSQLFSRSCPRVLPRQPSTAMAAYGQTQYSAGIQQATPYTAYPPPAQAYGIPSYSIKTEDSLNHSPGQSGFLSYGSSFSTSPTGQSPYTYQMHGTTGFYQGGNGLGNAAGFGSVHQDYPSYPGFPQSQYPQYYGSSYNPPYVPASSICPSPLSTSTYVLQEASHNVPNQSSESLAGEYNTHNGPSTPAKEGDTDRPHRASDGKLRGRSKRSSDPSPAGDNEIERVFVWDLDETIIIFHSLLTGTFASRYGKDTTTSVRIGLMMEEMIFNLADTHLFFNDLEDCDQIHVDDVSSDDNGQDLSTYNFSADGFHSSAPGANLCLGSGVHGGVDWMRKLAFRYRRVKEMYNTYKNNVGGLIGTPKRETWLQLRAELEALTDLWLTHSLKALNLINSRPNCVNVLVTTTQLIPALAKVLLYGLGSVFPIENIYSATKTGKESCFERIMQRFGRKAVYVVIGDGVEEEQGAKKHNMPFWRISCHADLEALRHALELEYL
Target sequence (Q15475 whole entry, looked up): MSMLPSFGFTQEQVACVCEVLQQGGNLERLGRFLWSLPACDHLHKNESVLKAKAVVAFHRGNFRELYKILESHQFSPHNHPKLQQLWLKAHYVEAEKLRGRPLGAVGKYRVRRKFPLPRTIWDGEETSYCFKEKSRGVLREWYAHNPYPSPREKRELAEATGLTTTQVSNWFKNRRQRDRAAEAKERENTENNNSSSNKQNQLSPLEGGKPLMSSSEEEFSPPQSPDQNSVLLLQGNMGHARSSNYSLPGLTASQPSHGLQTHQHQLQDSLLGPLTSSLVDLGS
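GST-Six1 + His-Eya2 (5X stock: 250/500 nM); Tris pH 8.0, 300 mM NaCl, 0.05% BSA, 0.02% Tween 20; GSH donor/Ni acceptor beads; 1 h 37 °C dark; AlphaScreen readout.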
D2 ag: Beta-Arrestin HTS for Positive Allosteric Modulators of the Human D2 Dopamine Receptor: Agonists. D(2) dopamine receptor (Homo sapiens), P14416. DiscoveRx PathHunter D2 beta-arrestin, luminescence, 90 min; 100% = 57 uM dopamine signal. activation, % (no concentration beside the values). 360,000 compounds, 0.084% hits; in the data active = activation above about 40%; inconclusive = about 15% to 40%; inactive = below about 15%; note: compound concentration not given in the record; the text of the record calls up to 30% inactive
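Agonist mode: compounds alone added to overnight-plated D2 PathHunter cells for 90 min at 37 C, with 57 uM final dopamine (EC100) defining full response. Beta-arrestin recruitment detected by chemiluminescent reagent, read after 1 h at ambient temperature.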
PINK1 modulator: A Quantitative High throughput Screen to Identify Chemical Modulators of PINK1 Expression; PINK1 immunofluorescence, high-content cytometry, 24 h; Potency, µM (top dose mostly 76.6 µM), inactives show at the top dose activation (PINK1 increase), most hits filed as activators; 410,000 compounds, 0.2% hits; AID 624263, 2012; active = well fitted activation curve with a large enough effect; inconclusive = small, poorly fitted or top-dose-only effect; inactive = flat fitted curve, though single readings scatter; cell line not stated here;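 note: potency is the fitted concentration of half-maximal effect; % of control where 0% means no effect; nearly all actives have a fitted effect of over 65% in size; a mitochondrial uncoupler was the plate control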
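Compound titrations (5 concentrations, 24 h) on a stable cell line; DMSO and CCCP controls. Endpoint: fixed-cell PINK1 immunofluorescence with mitochondrial, cell and nuclear markers, scanned by microplate cytometer.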
CtBP-E1A blk: qHTS Assay for Inhibitors of the CtBP/E1A Interaction. AlphaScreen GST-E1A/His-CtBP binding, 1536-well; hits give low values; control for the full effect not named in the record. activity change, % (no concentration beside the values). 340,000 compounds, 0.49% hits. AID 651724, 2012; in the data active means activity change below about -65%; inconclusive means about -30% to -65%; inactive means above about -30%; note: % is set by controls: 0 for no effect and ±100 for the full control effect
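AlphaScreen with 125 nM GST-E1A and 125 nM His-CtBP (5X stocks) in Tris pH 8.0, 300 mM NaCl, BSA, Tween 20, TCEP. Compounds preincubated 2 h at 37 deg C, then glutathione donor/nickel acceptor beads added for 1 h at 37 deg C in dark.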
TRPML1 ag: qHTS for Agonists of the Human Mucolipin Transient Receptor Potential 1 (TRPML1) | activation, % (no concentration beside the values) | 410,000 compounds, 0.12% hits | TRPML1-expressing cells, Ca2+ dye fluorescence, FDSS; host cell line not named in the record; reference of the full effect not given here | Mucolipin-1 (Homo sapiens), Q9GZU1; in the data active = activation above about 50%; inconclusive = about 30% to 50%; inactive = below about 30%; note: 0% is about no effect; the text of the record puts the active cut at 80%
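TRPML1-DL cells, Tet-induced overnight (~16 h, 37 degrees C), loaded 45-90 min at room temperature with Ca8 no-wash calcium dye plus quencher. FDSS fluorescence: 10 s baseline, compound pin-transfer, 110 s agonist read, then EC80 54-4 (4uM final) and 110 s antagonist read.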
TRPML1 blocker: qHTS for Inhibitors of the Human Mucolipin Transient Receptor Potential 1 (TRPML1). 390,000 compounds, 0.02% hits. activity change, negative = inhibition, % (concentration not given with the values). TRPML1-inducible cells, Ca2+ dye fluorescence, FDSS; hits give low values; inhibition of EC80 agonist-evoked calcium signal. Mucolipin-1 (Homo sapiens), Q9GZU1; in the data active means activity change below about -50%; inconclusive means about -30% to -50%; inactive means above about -30%;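 note: stimulus is agonist 54-4 at its EC80 concentration; % is set by controls: 0 for no effect and ±100 for the full control effect; the text of the record puts the active cut at -80%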
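TRPML1-DL cells, Tet-induced overnight (~16 h, 37 °C) at 1,500 cells/well, were loaded with Ca8 no-wash dye plus quencher for 45-90 min at room temperature. Compounds were pinned during FDSS kinetic reading; agonist 54-4 at EC80 (4 uM final) then added.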
Numbers without * were called inactive; ? = inconclusive; / = no result given; & = joins results of further samples; [ ] = dose if it differs, or a comment.

SMILES | Six1-Eya2 blk | D2 ag | PINK1 modulator | CtBP-E1A blk | TRPML1 ag | TRPML1 blocker
CCOC(=O)Cc1csc(SCC(=O)NC2CCC(C)CC2)n1 (centres undefined) | 16 | -1.4 | 2.5% | -13 | -0.5 | 1
O=C(C[n+]1ccccc1)NNc1ccccc1 | 8 | -6.1 | 2.7% | 5 | -0.8 | -11
O=C(Nc1cccc(Cl)c1)Nc1nccs1 | -5 | 2.5 | / | -13 | 0.0 | -8
COc1ccc(OC)c(N2C(=O)CC(Cc3ccc(Cl)cc3)C2=O)c1 (centres undefined) | 8 | -2.3 | -0.7% | 11 | -1.1 | -10
COc1ccc(/C=N/NC(=O)CCCOc2ccc(Cl)cc2Cl)cc1[N+](=O)[O-] | -5 | 6.1 | 8.6% | -1 | -0.5 | 69
COc1ccc(C)cc1NS(=O)(=O)c1ccc(NS(=O)(=O)c2ccc(NC(C)=O)cc2)cc1 | -3 | -0.6 | 1.1%[38.3 µM] | -7 | 0.6 | -1
Cc1noc(C)c1S(=O)(=O)N1CCCC(C(=O)Nc2nccs2)C1 (centres undefined) | 2 | 6.8 | 1.9% | 1 | 0.0 | 24
N#Cc1c(-c2ccccc2)nc2n1CCS2 | 3 | -2.9 | 4.6% | -6 | 0.0 | -5
COc1ccc(C(=O)CSC2=NS(=O)(=O)c3cc(Cl)ccc3N2)cc1 | 6 | -2.3 | 15% | 3 | -0.8 | -5
CCCCCCCC(=O)N/N=C/c1ccc(Br)cc1 | 1 | 2.7 | 3.0%[38.3 µM] | 10 | 1.5 | -4
Cc1nc(-c2nnc(SCC(=O)Nc3ccc(Cl)cc3)n2C)cs1 | 1 | -1.8 | 4.5% | 2 | 0.1 | -3
Cc1c(NC(=O)NCc2ccccc2)c(=O)n(-c2ccccc2)n1C | 3 | -2.4 | -0.7%[38.3 µM] | 6 | 0.0 | 5
CCC(C)N=Cc1c(Nc2ccccc2)nc2c(C)cccn2c1=O (centres undefined) | 2 | -6.6 | 24% | / | 0.0 | 12
CCn1cc2nc(SCc3cccc(C(F)(F)F)c3)n(Cc3ccc(C)cc3)c(=O)c2n1 | / | / | 0.8% | / | -0.7 | -8
CC(C)(C)c1ccc(CN2N=Nc3ccccc3S2(=O)=O)cc1 | 2 | 1.6 | -0.3% | -2 | -0.5 | 1
CCN(CC)C(=O)c1cccc(C)c1 | 6 | -1.0 | 0.6%&1.2% | -11 | 0.4 | 4
COC1(OC)N=C(N)C2(C#N)C(c3cccc(Oc4ccccc4)c3)C12C#N (centres undefined) | 29 | -3.3 | -0.4% | 0 | -0.1 | -3
CC1=CC(C)(C)NC(=S)N1NC(=O)c1ccccc1Cl | 0 | 2.1 | -0.2% | 5 | 0.6 | -5
Cc1ccc2nc(-c3ccc(NC(=O)COC(=O)c4ccc(Br)o4)cc3)sc2c1 | -3 | -2.0 | 5.0% | 2 | 0.5 | 3
Cc1ccc(/C=C/C(=O)NC(=S)Nc2ccc(S(=O)(=O)Nc3cc(C)on3)cc2)cc1 | -2 | -4.0 | 6.0% | ? | 1.7 | -3

Some of these compounds in order of SMILES length, low to high.
SMILES | Six1-Eya2 blk | D2 ag | PINK1 modulator | CtBP-E1A blk | TRPML1 ag | TRPML1 blocker
CCN(CC)C(=O)c1cccc(C)c1 | 6 | -1.0 | 0.6%&1.2% | -11 | 0.4 | 4
CC1=CC(C)(C)NC(=S)N1NC(=O)c1ccccc1Cl | 0 | 2.1 | -0.2% | 5 | 0.6 | -5
CC(C)(C)c1ccc(CN2N=Nc3ccccc3S2(=O)=O)cc1 | 2 | 1.6 | -0.3% | -2 | -0.5 | 1
Cc1nc(-c2nnc(SCC(=O)Nc3ccc(Cl)cc3)n2C)cs1 | 1 | -1.8 | 4.5% | 2 | 0.1 | -3
Cc1c(NC(=O)NCc2ccccc2)c(=O)n(-c2ccccc2)n1C | 3 | -2.4 | -0.7%[38.3 µM] | 6 | 0.0 | 5
CCn1cc2nc(SCc3cccc(C(F)(F)F)c3)n(Cc3ccc(C)cc3)c(=O)c2n1 | / | / | 0.8% | / | -0.7 | -8

(cont.)
SMILES | Six1-Eya2 blk | D2 ag | PINK1 modulator | CtBP-E1A blk | TRPML1 ag | TRPML1 blocker
CCc1ccc(CN2CCC(C(=O)Nc3cccc(-c4nnc(C)s4)c3)CC2)o1 | -11 | -4.7 | -3.5% | -18 | 0.0 | 20
O=C(NC1=NCCS1)[C@H](Cc1ccccc1)N1C(=O)c2ccccc2C1=O | 7 | -2.2 | -1.2% | 1 | -0.4 | 10
Cc1cc(-c2n[nH]c(=S)n2/N=C/c2ccc(Cl)c([N+](=O)[O-])c2)n[nH]1 | -14 | 1.1 | 9.4% | -3 | 1.6 | 35
COc1ccc(NC(=O)CSc2nc3ccccc3c(=O)n2CCCN2CCCCC2)c(OC)c1 | -2 | -3.2 | -2.0% | -2 | -1.0 | -4
CN=C1SC(C(=O)O)CC(=O)N1C (centres undefined) | 9 | -0.8 | 0.1% | 0 | 1.8 | 29
CCCc1[nH]n(-c2nc3ccccc3s2)c(=O)c1C=NCCN1CCOCC1 | 2 | -4.3 | -3.2%[38.3 µM] | 2 | 1.0 | 16
CCC(Sc1ncccc1C(=O)O)C(=O)N1CCCC1 (centres undefined) | 4 | -5.5 | 11%[38.3 µM] | 4 | 2.1 | 9
CCOc1ccc(NC(=O)c2oc3ccccc3c2NC(=O)c2ccc(OC)cc2OC)cc1 | / | / | 3.4% | / | -0.9 | -2
Cc1c[n+]([O-])cc(C)c1[N+](=O)[O-] | 12 | -3.2 | -1.4% | 3 | 0.9 | -3
O=C1c2ccc(-c3ccc(Cl)c(C(F)(F)F)c3)cc2S(=O)(=O)c2cccc(C(=O)N3CCN(c4ncc(Br)cn4)CC3)c21 | -3 | -3.8 | 0.8% | -2 | -0.8 | 65
CCCCNC(=O)Nc1ccc(C2SCCS2)cc1 | -2 | 0.2 | 0.1% | 9 | -0.4 | 14
Cc1cc(=O)n2[nH]cc(-c3ccccc3)c2n1 | ? | -8.2 | -1.5% | -13 | 0.0 | 8
COc1ccc(N(CC(=O)N2CCCCCC2)S(=O)(=O)c2ccccc2)cc1 | 14 | -2.5 | 1.3% | 0 | -1.5 | 29
Cc1ccc(-c2csc(N(CCc3ccccc3)C(=O)COc3ccccc3)n2)cc1 | 2 | -2.1 | 11% | 2 | 0.1 | 20
O=C(Nc1ccc(Br)cc1)c1cc(-c2ccc3c(c2)OCO3)on1 | 8 | 0.8 | 12% | -1 | -0.4 | -1
Cc1cccc2c(-c3ccccc3)cc(=O)[nH]c12 | -1 | -3.4 | 2.1% | 6 | -1.1 | 11
COc1ccc(Cl)cc1NC(=O)CSc1nc(-c2ccccc2)cc(=O)[nH]1 | -2 | -3.2 | 4.3% | -9 | 1.6 | 49
COc1ccc(/C=N/n2c(C)cc(C)c(C(N)=O)c2=O)cc1 | 4 | 0.0 | -3.6%[38.3 µM] | 4 | 0.4 | 18
COc1nc(N(C)C)nc(N(OC)S(=O)(=O)c2ccccc2Cl)n1 | -1 | -3.2 | 0.2% | -14 | 1.5 | 12
C[C@H](O)CC1=C[C@H](O)[C@@H](C)OC1=O | 2 | -2.0 | -0.5% | 7 | / | /
COc1ccccc1/C=C1\SC(=S)N(N2C(=O)CCCC2=O)C1=O | 4 | 1.8 | 1.7% | 3 | -0.1 | -6
Cc1cc(NC(=O)c2ccc3c(c2)C(=O)N(Cc2cccnc2)C3=O)no1 | -1 | -0.7 | -1.9% | -10 | 0.0 | -1
Clc1ccc(-c2cc(C3CCNCC3)[nH]n2)c(Cl)c1 | -3 | 0.1 | -2.6% | -24 | -0.2 | 12
CCOC(=O)Cc1ccc(NC(=O)Nc2nnc(N3CCCCC3C)s2)cc1 (centres undefined) | / | / | -0.3% | / | 0.1 | 8
CCc1nnc(NC(=O)CCC(=O)Nc2ccccc2)s1 | 4 | -2.7 | 0.4% | 3 | 1.6 | 9
CCOC(=O)c1c(C)oc2nc(C)nc(Nc3ccc(CC)cc3)c12 | / | / | 1.3% | / | 0.8 | -13
O=C(CCN1C(=O)c2ccccc2C1=O)NC1=NCCS1 | -3 | -3.1 | 2.7% | -1 | -0.5 | 4
Cc1c(NC(=O)CSc2nnnn2C)c(=O)n(-c2ccccc2)n1C | 0 | -3.1 | 1.5% | -4 | -0.8 | -7
Cc1ccc(C(=O)NC2c3ccccc3-c3ccccc32)cc1 | 2 | -2.8 | ? | 4 | 2.4 | 14
CCOC(=O)c1c(NC(=O)C2=C(C)NC(=S)NC2c2ccc(F)cc2F)sc(C)c1C (centres undefined) | 1 | -6.0 | -1.2% | 3 | -0.8 | -10
CC(OC(=O)CC1CC2CCC1C2)C(=O)Nc1cccc(S(=O)(=O)N2CCOCC2)c1 (centres undefined) | 1 | -2.5 | 4.1% | -15 | 4.1 | 21
O=C(NCC(=O)N1CCN(Cc2ccc3c(c2)OCO3)CC1)c1ccccc1F | 0 | 3.5 | 4.5% | 5 | -0.1 | 3
O=C(CSc1nc2c([nH]c3ccccc32)c(=O)n1-c1ccccc1)Nc1ccc(Cl)c(Cl)c1 | / | / | 3.4% | / | -0.2 | 9
CCC(CC)NC(=O)Nc1ccc(F)cc1F | 0 | -6.2 | 1.2% | -3 | 0.6 | -1
CCOC(=O)C1(CCc2ccccc2)CCN(Cc2ccc(C(=O)OC)cc2)CC1 | 0 | -6.4 | ? | -3 | 1.9 | 38
CCCNC(=O)Cn1c(=O)oc2cc(S(=O)(=O)N3CC(C)CC(C)C3)ccc21 (centres undefined) | 1 | -2.6 | 1.3% | / | 0.4 | 8
Cc1nc(Cl)c(C(=O)NCc2ccccc2)c(C)c1[N+](=O)[O-] | -5 | -0.5 | -0.9% | -2 | 0.3 | -4
CC(C)N1C(=O)CCN(C=O)c2ccccc21 | -8 | -2.2 | 2.0% | / | 0.8 | -9
COc1ccc(-c2cc(C(=O)N3CCN(c4ncccn4)CC3)c3ccccc3n2)c(OC)c1 | -8 | -4.0 | 0.1% | -21 | -0.6 | -18
CCc1ccc(OCC(=O)Nc2ccc(S(=O)(=O)Nc3cc(C)on3)cc2)c(Br)c1 | -1 | -1.5 | -3.9% | -3 | 1.3 | 46
Cc1cc(C)cc(C(O)c2ncc(-c3ccc(C(F)(F)F)cc3)[nH]2)c1 (centres undefined) | -2 | -1.2 | 5.8% | -16 | 1.0 | 81
